TSHR ag: activates the human thyroid stimulating hormone receptor; hit rate 0.48% among 73,000; Potency, µM (titrated, usually from 57.1 µM), inactives show top-dose activation, most hits filed as activators; AID 926; HEK293-CNG-TSHR cells (CNG channel as cAMP sensor), membrane potential dye, cAMP; active = well fitted activation curve of enough size with the parental cells flat; inconclusive = any curve in the parental cells; inactive = parental cells flat and receptor cells flat or falling; note: potency is the fitted concentration of half-maximal effect; % of control where 0% means no effect; weak receptor curves with flat parental cells got no call and are not listed
Target sequence (P16473 whole entry, looked up): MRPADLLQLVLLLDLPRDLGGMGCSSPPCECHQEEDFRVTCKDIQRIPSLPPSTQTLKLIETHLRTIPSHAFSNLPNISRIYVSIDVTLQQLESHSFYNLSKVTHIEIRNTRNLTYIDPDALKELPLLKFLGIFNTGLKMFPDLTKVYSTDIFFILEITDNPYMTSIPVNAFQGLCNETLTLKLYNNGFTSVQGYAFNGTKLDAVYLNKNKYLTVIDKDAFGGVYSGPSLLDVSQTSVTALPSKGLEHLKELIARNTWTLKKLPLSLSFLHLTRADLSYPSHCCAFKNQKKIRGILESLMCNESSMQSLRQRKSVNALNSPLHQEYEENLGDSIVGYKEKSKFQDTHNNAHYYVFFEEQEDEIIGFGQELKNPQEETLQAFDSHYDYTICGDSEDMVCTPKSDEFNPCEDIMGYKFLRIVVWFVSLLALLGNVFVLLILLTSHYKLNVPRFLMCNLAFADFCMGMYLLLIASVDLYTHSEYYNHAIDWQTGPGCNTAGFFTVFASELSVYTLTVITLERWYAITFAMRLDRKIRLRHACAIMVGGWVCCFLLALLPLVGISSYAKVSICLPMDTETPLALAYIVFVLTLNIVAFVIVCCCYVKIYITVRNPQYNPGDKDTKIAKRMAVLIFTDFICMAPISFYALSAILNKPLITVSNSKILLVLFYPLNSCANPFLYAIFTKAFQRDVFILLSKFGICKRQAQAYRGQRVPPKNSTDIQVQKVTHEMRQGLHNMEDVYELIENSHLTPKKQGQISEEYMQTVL
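cAMP rise detected as CNG-channel membrane depolarization by fluorescent dye (emission 590 nm), 30 min after compound, following 60 min dye loading containing 100 uM RO 20-1724 at room temperature. Cells: TSHR/CNG HEK 293, with parental CNG HEK 293 as control.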
Resorufin autofl: compounds fluorescent in resorufin spectral region; Compound fluorescence, resorufin region 547/598 nm, buffer; stronger effect = higher value; max dye-equivalent concentration, M; hit rate 0.04% among 59,000; AID 588; active = above 10 nM dye equivalent; inconclusive = 1 to 10 nM; inactive = 1 nM or less; a few of its hits are not listed in these tables; note: highest value over a series up to 38 µM
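Read-out: intrinsic compound fluorescence at ex 547/em 598 nm after 15 min at RT in pH 8.0 Tris (100 mM). Values expressed as resorufin-equivalent concentration from per-plate standard series.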
AID923: qHTS Assay for Allosteric/Competitive Inhibitors of Caspase-1: Spectroscopic Profiling in AFC Spectral Region; compound fluorescence, AFC spectral region (405/520 nm); almost no hit is shown here; Potency, µM (highest dose often 57.5 µM), for inactives: top-dose fluorescence increase, hits mostly activators; hit rate 1.1% among 75,000; AID 923, 2007; active = well fitted activation curve with a large enough effect; inconclusive = small, poorly fitted or top-dose-only effect;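 note: potency is the fitted concentration of half-maximal effect; 0% is about no effect; scaled to a free AFC standard on each plate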
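Compound autofluorescence profiled at 405 nm ex/520 nm em during kinetic caspase 1 run (50 nM enzyme, 5 uM Ac-WEHD-AFC, HEPES pH 7.5, 10 mM DTT). Titration up to 57 uM; baseline from regression intercept, normalized to AFC standard curve.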
A488 fluor: A488 region autofluorescence. compound autofluorescence, A488 spectral region, dye equivalency; stronger effect = higher value. max dye equivalency, M. hit rate 0.1% among 59,000. AID 591; active = above 10 nM dye equivalent; inconclusive = 1 to 10 nM; inactive = 1 nM or less; about half of its hits are not listed in these tables;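 note: highest value over a series up to 38 µM; compound alone in buffer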
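Compound autofluorescence was read in 100 mM Tris pH 8.0 after 15 min at room temperature, ex 480 nm/em 540 nm. Intensities were converted to A488 dye-equivalent concentration using an on-plate six-point A488 standard curve.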
A647 autofl: compound autofluorescence in A647 spectral region | Compound fluorescence, A647 channel (570/671 nm), Tris buffer | max dye-equivalent concentration, M | 59,000 tested, under 10 active | AID 592; active means above 1 µM dye equivalent; inconclusive means 0.1 to 1 µM; inactive means 0.1 µM or less;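 note: values scaled relative to a standard on each plate; highest value over a series up to 38 µM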
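Fluorescence read (570 nm ex, 671 nm em) after 15 min RT incubation of compounds in 100 mM Tris buffer, pH 8.0; values expressed as dye-equivalent concentration against a six-point A647 standard series on each plate.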
* = called active by the depositor; i = inactive; ? = inconclusive; · = not tested or not shown; & = joins results of further samples; [ ] = dose if it differs, or a comment. The list is partial (hit frequency here may not be typical).

SMILES	TSHR ag	Resorufin autofl	AID923	A488 fluor	A647 autofl
COc1ccccc1N(CC(=O)Nc1c(C)cccc1C)S(C)(=O)=O	8.5%[11.4 µM]	·	-1.3%	·	·
O=C(OCc1cc2ccccc2[nH]c1=O)c1ccccc1	7.3%	i	0.6%	i	1e-09
O=C(CCCCCN1C(=O)CCC1=O)Nc1ccc2c(c1)OCO2	-1.8%	i	0.6%	i	4.4e-09
Cc1cnc(CNc2cc(-c3ccoc3)ncn2)cn1	0.6%	i	14.9%	i	1e-09
Cc1ccc(S(=O)(=O)N2CCN(C(=O)CN3CCN(C)CC3)C2)cc1	-4.3%	i	-0.1%	i	2.4e-09
Cc1cc(NC(=O)NC(=O)c2cccc(OC(F)(F)C(F)F)c2)n[nH]1	1.4%	i	-1.2%	i	1.32e-08
N#Cc1ccc(CSc2nnc(-c3ccncc3)n2CCc2ccccc2)cc1	?	i	-0.1%	i	1.36e-08
CCOC(=O)c1cccc(NC(=O)C2CCCO2)c1 (centres undefined)	-2.5%	i	0.4%	i	3e-09
Cc1nc2c(C(=O)N3CCN(c4ccccn4)CC3)cnn2c(C)c1Cc1cccc(Cl)c1	?	i	1.2%	i	1.6e-09
Nc1nc2c(ncn2[C@@H]2C=C[C@@H](CO)C2)c(=O)[nH]1	-6.6%[11.4 µM]	i	-1.8%[11.5 µM]	i	1e-09
COc1ccc(CCn2c(N)cc(=O)[nH]c2=S)cc1OC	-3.7%	i	2.3%	i	3.6e-09
Cn1c(=O)cnc2cnc(OCc3ccccc3)nc21	?	i	2.7%	i	2.2e-09
CCOC(=O)N1CCN(S(=O)(=O)c2ccc(C(=O)Nc3nc4ccccc4s3)cc2)CC1	6.6%[11.4 µM]	i	-0.4%	i	2.8e-08
Fc1cccc(CN2CCCCCCC2)c1	7.6%	i	-0.6%	i	1.15e-08
COC(=O)[C@H](C)NC(=O)Nc1ccc(OC)c(OC)c1	0.7%	i	0.3%	i	2.75e-08
CC(=O)OCC(=O)[C@@]1(OC(C)=O)[C@@H](C)C[C@H]2[C@@H]3C[C@H](F)C4=CC(=O)C=C[C@]4(C)[C@@]3(F)[C@@H](O)C[C@@]21C	·	i	·	i	1e-09
CCOC(=O)c1sc2nc(N3CCOCC3)c3c(c2c1N)CCN(C)C3	-9.4%	i	12.4%	i	1e-09
O=C(CSc1nnc(-c2cccs2)o1)OCc1ccccc1	?	i	1.5%	i	2.22e-08
COc1cc(C(=O)NCC(=O)OCC(=O)c2ccc[nH]2)cc(OC)c1OC	0.6%	i	0.6%	i	5.2e-09
Cc1sc(NC(=O)CSc2nnc(C)c(=O)[nH]2)c(C#N)c1C	?	i	-0.3%	i	1e-09

3 entries drawn at random from those above, as already listed:
SMILES	TSHR ag	Resorufin autofl	AID923	A488 fluor	A647 autofl
CCOC(=O)N1CCN(S(=O)(=O)c2ccc(C(=O)Nc3nc4ccccc4s3)cc2)CC1	6.6%[11.4 µM]	i	-0.4%	i	2.8e-08
COc1ccccc1N(CC(=O)Nc1c(C)cccc1C)S(C)(=O)=O	8.5%[11.4 µM]	·	-1.3%	·	·
Cc1ccc(S(=O)(=O)N2CCN(C(=O)CN3CCN(C)CC3)C2)cc1	-4.3%	i	-0.1%	i	2.4e-09

Following part.
SMILES	TSHR ag	Resorufin autofl	AID923	A488 fluor	A647 autofl
COc1ccc(N2CCN(C(=O)c3ccc(NS(=O)(=O)c4cccc(F)c4)cc3)CC2)cc1	-2.6%	i	-1.6%	i	2.31e-08
O=C(CCCn1c(=O)[nH]c2ccsc2c1=O)N1CCN(Cc2ccc3c(c2)OCO3)CC1	1.5%	i	0.5%	i	4.01e-08
COC(=O)c1nn(-c2c(C)n(C)n(-c3ccccc3)c2=O)cc1O	5.8%	i	0.3%	i	1e-09
CCNS(=O)(=O)c1ccc(NC(=O)Cc2ccc(F)cc2)cc1	·	i	-0.8%	i	1.12e-08
O=C(CCCOc1ccc(Cl)cc1)N1CCOCC1	-0.4%	i	-0.8%	i	1e-09
Cc1ccc(NC(=O)C2CCCN2S(=O)(=O)c2cccc3cccnc23)cc1F (centres undefined)	?	·	-1.6%	·	·
CCOCCCNC(=O)C1CCN(C(=O)N(C)C)CC1	1.6%	i	-1.4%	i	4.52e-08
Cc1nc2nc(COc3ccccc3)[nH]n2c(=O)c1C	9.4%	i	-0.2%	i	1e-09
CCOC(=O)c1c(C)oc2c1c(C(c1cccnc1)N1CCN(C)CC1)c(O)c1ccccc12 (centres undefined)	1.4%	i	-1.3%	i	3.1e-09
CCc1cc2c3c(c(=O)oc2cc1OC)CCCC3	?	i	-0.5%	i	1.62e-08
NC(=O)C1CCN(C(=O)CN2CCN(c3cccc(C(F)(F)F)c3)CC2)CC1	-1.7%	i	-0.8%	i	1.01e-08
O=C(NCc1ccco1)c1cc(-c2cccnc2)nc2ccccc12	20.4%	i	0.0%	i	1e-09
Cc1nc2ccccn2c1C(=O)c1ccccc1	-5.5%	i	-1.8%	i	2.89e-08
Cc1c(C(=O)N2CCN(c3ccccn3)CC2)oc2ccccc12	25.2%	i	-0.4%	i	1.69e-08
COC(=O)CSc1ccc2nnc(-c3ccc(F)cc3)n2n1	2.5%[11.4 µM]	i	-1.5%	i	6.5e-09
CCOC(=O)c1ccc(-c2n[nH]c(=O)c3ccccc23)cc1	1.2%[11.4 µM]	i	-0.7%	i	2.7e-09
COc1ccc(C(F)(F)F)cc1NC(=O)c1nc2nc(C)cc(C(F)F)n2n1	4.0%[11.4 µM]	i	1.8%	i	2.9e-09
Cc1ccc(-n2c(N)c(C(=O)N3CCOCC3)sc2=S)c(C)c1	-5.7%	i	-2.4%	i	1e-09
CCOC(=O)C1=C(C)NC(C)=C(C(=O)OC)[C@H]1c1cccc([N+](=O)[O-])c1	·	i	-4.4%	i	2.5e-09
COc1ccccc1N1C(=O)CC(Nc2ccc(N3CCOCC3)cc2)C1=O (centres undefined)	6.0%	i	0.8%	i	2.93e-08
CCn1c(COc2ccccc2C)nnc1SCC(=O)NC1CCCC1	0.3%	i	0.9%	i	2.95e-08
N#CCCn1c(SCC(=O)NCC2CCCO2)nc2ccccc21 (centres undefined)	-3.0%	i	-0.9%	i	4.04e-08
CCOC(=O)c1ccc(NC(=O)CSc2nnc(CNC(=O)c3c(F)cccc3Cl)o2)cc1	3.6%[11.4 µM]	i	-0.6%	i	1e-09
CCOC(=O)C(C)Oc1cccc2c(=O)n(CC(=O)NCc3ccc4c(c3)OCO4)ccc12 (centres undefined)	-7.5%	·	1.0%	·	·
CC1(C)NC(=O)N(CC(O)CN2CCOCC2)C1=O (centres undefined)	·	i	0.0%	i	3.9e-09
Cc1ccc2c(c1)nnn2C1CCN(CC(=O)NCCc2ccccc2)CC1	14.1%	i	0.5%	i	6.5e-09
CCCn1c(=O)c(C(=O)Nc2nnc(CC)s2)c(O)c2ccccc21	3.8%	i	-1.5%	i	1.18e-08
Cn1c(SCC(=O)N2CCOCC2)nnc1-c1cnccn1	7.6%	i	0.8%	i	1.2e-08
Cc1c(C(=O)N2CCCCC2)sc(NC(=O)C2CC2)c1C#N	17.4%	i	1.3%	i	4.9e-08
COC(=O)COc1ccc2oc(=O)cc(C)c2c1	5.5%	i	-2.6%	i	1.9e-09
CC(C)(C)c1ccc(OCC(=O)NCc2ccco2)c(Br)c1	?	i	0.7%	i	2.08e-08
COC(=O)Nc1ccc(C)cc1NC(=O)OC	-1.4%	i	-1.9%	i	1.75e-08
c1ccn2cc(CSc3nnc4ccccn34)nc2c1	5.1%[11.4 µM]	i	-1.1%	i	1e-09
c1ccc(N(c2ccccc2)c2nc(-n3ccnc3)nc(-n3ccnc3)n2)cc1	?	i	0.6%	i	8.6e-09
COc1ccc(C2c3c(-c4cc(Cl)c(C)cc4O)n[nH]c3C(=O)N2Cc2cccnc2)cc1OC (centres undefined)	7.94µM*	i	-0.2%	i	1e-09
Cc1ccc(C)c(NC(=O)Cn2nnc(C(=O)Nc3c(C)cccc3C)c2N)c1	?	i	0.8%	i	2.3e-09
Cc1cc(Nc2ccc3c(c2)OCCO3)n2nc(C)nc2n1	?	·	-3.6%	·	·
COc1ccc2c(CC(=O)Nc3ccc(OC)c(NS(=O)(=O)c4ccc(F)cc4)c3)coc2c1	-0.2%	i	1.2%	i	1.97e-08
CCc1nnc(NC(=O)CSc2nnc(-c3c[nH]c4ccccc34)n2CCOC)s1	-11.2%	i	0.0%	i	1e-09
C[C@@H](CN(C)C)CN1c2ccccc2CCc2ccccc21	20.1%[25.6 µM]	i	1.7%[25.7 µM]	i	4.4e-09&1e-09

Record cards, from the list above. Values in the order: TSHR ag, Resorufin autofl, AID923, A488 fluor, A647 autofl
`Cc1ccc(C)c(NC(=O)Cn2nnc(C(=O)Nc3c(C)cccc3C)c2N)c1` in the list: ?, i, 0.8%, i, 2.3e-09
`c1ccc(N(c2ccccc2)c2nc(-n3ccnc3)nc(-n3ccnc3)n2)cc1` in the list: ?, i, 0.6%, i, 8.6e-09

(further entries)
SMILES	TSHR ag	Resorufin autofl	AID923	A488 fluor	A647 autofl
CN1C(=O)Cc2cc(S(=O)(=O)N3CCOCC3)ccc21	-1.7%[11.4 µM]	i	1.1%	i	1e-09
O=c1nc(-c2ccccc2)n(-c2ccccc2)c2ncccc12	·	i	2.1%	i	7.1e-09
CCCc1nc2c(sc3nc4c(cc32)COC(C)(C)C4)c(=O)n1Cc1ccco1	?	i	-0.7%	i	1.05e-08
CCOC(=O)C1CCN(C(=O)CCc2nc3ccccc3[nH]2)CC1	0.3%	i	-1.7%	i	2.01e-08
CC(C)C(C(=O)Nc1ncn[nH]1)N1C(=O)c2ccccc2C1=O (centres undefined)	·	i	·	i	1e-09
CCc1nnc(NC(=O)Cn2ccc(C(F)(F)F)n2)s1	-3.1%	i	-0.4%	i	1e-09
CC(=O)N1CCc2cc(Br)cc(S(=O)(=O)NCc3ccccn3)c21	-3.1%	i	1.0%	i	5.1e-09
CC(=O)N(c1c(C)n(C)n(-c2ccccc2)c1=O)C1(C(=O)NC2CCCC2)CCCCC1	9.5%	i	-1.0%	i	2.4e-09
CCSc1nnc2c(n1)OC(C)(C)Nc1ccccc1-2	-0.8%	·	-2.2%	·	·
CCOC(=O)SC1=N/C(=C\c2ccc(N(C)C)cc2)C(=O)S1	5.7%	i	-1.1%	i	1e-09
O=C(NCc1ccccc1Cl)C1CCN(S(=O)(=O)N2CCC3(CC2)OCCO3)CC1	-8.1%	i	-0.4%	i	1e-09
Nc1cccc(-n2nncc2-c2ccc(Cl)cc2)c1	-3.0%	i	1.4%	i	1.3e-09
Cc1ccccc1S(=O)(=O)Cc1ccc(C(=O)NCCN2CCCCC2C)o1 (centres undefined)	6.6%	i	-1.3%	i	1.58e-08
Cc1nn2c(-c3cccc(NC(=O)CSc4nc5ccccc5o4)c3)nnc2c2ccccc12	?	i	-0.2%	i	1e-09
COCCNc1ncnc2ccc(-c3cccc(NS(C)(=O)=O)c3)cc12	6.8%	i	1.8%	i	3.19e-08
O=C(CN1CCOCC1)Nc1cccc(Cl)c1Cl	2.6%	i	1.2%	i	3.12e-08
COC(=O)c1cccc(OCC(O)Cn2cnc3cc(C)c(C)cc32)c1 (centres undefined)	25.3%	i	-1.7%	i	1e-09
CC1CN(C(=O)N2c3ccccc3Sc3ccccc32)C(C)CC1=O (centres undefined)	·	i	-0.1%	i	4.74e-08
CCN1CCCC1CNC(=O)c1csc2c1CCCC2 (centres undefined)	0.7%[11.4 µM]	i	0.5%	i	1.21e-08
COc1ccc(OC)c(N(CC(=O)Nc2ccccc2)S(C)(=O)=O)c1	-16.1%	i	0.4%	i	2.1e-09
CC(=O)N(CCc1ccccc1C)Cc1cc2cc3c(cc2[nH]c1=O)OCO3	?	i	1.3%	i	4.39e-08
CCOC(=O)c1c(N)sc(C(=O)Nc2ccc3c(c2)OCO3)c1C	-20.5%	i	-1.4%	i	1e-09
Cc1nc2ccccn2c1/C(O)=C1\C(=O)C(=O)N(CCCN(C)C)C1c1ccc(F)cc1 (centres undefined)	?	·	-0.3%	·	·
